# Screens (PubChem BioAssay)
# Ecoli rRNA inh = reduced GFP signal of wild-type E. coli, primary screen, bacterial rRNA inhibitor project, GFP/RFP fluorescence, OD600, single point. E. coli WT GFP vs humanized-ribosome RFP mutants, 24 h; active compounds read low; DMSO median 0, no signal -100. GFP signal change (wild-type ribosome), % (test concentration not listed). 350,000 compounds, 1.6% hits;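 active means significant combined selectivity score with lowered wild-type GFP, culture density cut under 30%, mutant RFP and density less affected; inactive means any of these conditions unmet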; further: one replicate is shown; some compounds called inactive have numbers as strong as hits
# Ecoli rRNA inh OD600 = further read-out of Ecoli rRNA inh, marked with its call; OD600 change, %; measured here: OD600 growth;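 optical density of the mix in the first replicate; 0 = DMSO median and -100 = no signal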
# Ecoli rRNA inh RFP = further read-out of Ecoli rRNA inh, marked with its call; RFP signal change, %; measured here: RFP humanized mutant strains;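 first replicate; 0 = DMSO median and -100 = no signal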
# The depositor's hits bear a star; & = joins results of further samples. A portion of the library. The share of hits here may be higher or lower than overall.
Compound | Ecoli rRNA inh | Ecoli rRNA inh OD600 | Ecoli rRNA inh RFP
C[C@H](CO)N1C[C@H](C)[C@H](CN(C)Cc2ccccc2)Oc2ccc(NS(=O)(=O)c3cn(C)cn3)cc2CC1=O | 3.5 | 7.9 | -1.0
C[C@@H](NC(=O)C[C@H]1CC[C@@H]2[C@H](COc3ccc(NC(=O)C4CCOCC4)cc3C(=O)N2C)O1)c1ccccc1 | 1.7 | 16.5 | -1.2
C[C@H](CO)N1C[C@H](C)[C@H](CN(C)C)Oc2ccc(NC(=O)Cn3cnnn3)cc2CC1=O | 11.8 | -3.1 | 0.5
C[C@@H]1CN([C@@H](C)CO)C(=O)c2cccc(NC(=O)C3CCOCC3)c2O[C@@H]1CN(C)CC1CC1 | 1.5 | 5.0 | 0.7
CN1CCN(C(=O)C[C@@H]2CC[C@@H]3[C@H](COC[C@@H](O)CN3Cc3cccc(Cl)c3)O2)CC1 | -2.2&2.3 | -7.4&-1.5 | -2.6&0.4
Cc1ccccc1S(=O)(=O)N[C@H]1CC[C@H](CCn2cc(Cc3ccccc3)nn2)O[C@H]1CO | -3.1 | -9.1 | 1.5
CS(=O)(=O)Nc1ccc2c(c1)[C@@H]1C[C@@H](CC(=O)NCc3cccnc3)O[C@@H](CO)[C@@H]1O2 | 3.9 | 9.0 | -2.8
CCCNC(=O)c1cc(C2CCCCN2C(=O)c2cccs2)on1 (stereo unspecified) | 7.1 | 5.2 | -1.1
COCCNC(=O)c1ccc(-c2ccc(OC)cc2C)c2ccoc12 | -13.8 | -28.8 | -6.8
C[C@@H]1CN([C@H](C)CO)S(=O)(=O)c2ccc(C#C[C@@H](C)O)cc2O[C@H]1CN(C)Cc1cccnc1 | -3.1 | -8.7 | -0.5
O=C(N[C@H]1CC[C@@H](CCNS(=O)(=O)Cc2ccccc2)O[C@H]1CO)c1cnccn1 | 1.3 | 4.4 | -1.1
C[C@H]1CN([C@@H](C)CO)C(=O)c2cc(-c3cccc(C#N)c3)cnc2O[C@@H]1CN(C)C(=O)C1CCC1 | 4.5 | 14.4 | -3.1
O=C([C@@H]1N[C@@H]2c3ccc(C4=CCCC4)c(=O)n3C[C@@H]2[C@H]1CO)N1CCc2ccccc2C1 | 0.5 | -9.0 | 0.5
COc1ccc(CN2CCC(C)(Oc3ccc(C(C)=O)cc3)C2)c2ccccc12 (stereo unspecified) | -6.3 | -25.3 | 4.4
O=C(c1cccnc1)N1CC2(C1)[C@@H](c1ccccc1)[C@@H](CO)N2C(=O)c1cccnc1 | 3.6 | 2.2 | -2.2
COc1ccccc1-c1ccc([C@H]2[C@H](CO)N3CCCCN(C(=O)c4ccncc4)C[C@@H]23)cc1 | 1.8 | 3.2 | -1.0
O=C1[C@H]2[C@@H](c3ccc(C(F)(F)F)cc3)N[C@]3(CCCN(Cc4ccc(C(F)(F)F)cc4)C3=O)[C@H]2C(=O)N1Cc1ccccc1 | 7.8 | 8.2 | -2.6
C[C@@H]1CCCCO[C@H](CN(C)C(=O)c2ccncc2)[C@@H](C)CN([C@H](C)CO)C(=O)c2cc(NS(C)(=O)=O)ccc2O1 | 3.2 | -0.3 | -5.5
O=C(C[C@@H]1C=C[C@H](NC(=O)Cc2cccnc2)[C@@H](CO)O1)NCc1ccc2c(c1)OCO2 | 1.5 | 3.5 | -0.5
CCCCCCCCN1C(=O)[C@@H](CC(=O)NCc2ccc(OC)c(OC)c2)C[C@@]2(C(=O)OC)C1=C[C@H](C(C)(C)C)O[C@@H]2C | 7.6 | 8.6 | -1.4
COc1ccc(S(=O)(=O)N(C)C[C@@H]2OCCCC[C@@H](C)Oc3ccc(NC(=O)C4CCCCC4)cc3C(=O)N([C@H](C)CO)C[C@@H]2C)cc1 | 1.5 | 4.9 | -3.6
CCOC(=O)N1CCN(C(c2cc3ccccc3o2)c2nnnn2C(C)(C)C)CC1 (stereo unspecified) | 0.4 | -7.2 | -2.7
CC(C)NC(=O)N1C[C@H]2[C@@H](c3ccccc31)[C@H](CO)N2C(=O)c1ccccc1F | 0.5 | 5.6 | -2.5
C[C@@H]1CCCCO[C@H](CN(C)S(=O)(=O)c2cn(C)cn2)[C@@H](C)CN([C@@H](C)CO)C(=O)c2cc(NS(=O)(=O)c3ccccc3)ccc2O1 | 2.2 | 1.1 | 2.4
C[C@H](CO)N1C[C@H](C)[C@@H](CN(C)C(=O)C2CCCCC2)Oc2ncc(-c3cccc(F)c3)cc2C1=O | -2.4 | -4.7 | 2.6

# (further entries)
# Order of results: Ecoli rRNA inh	Ecoli rRNA inh OD600	Ecoli rRNA inh RFP
C[C@@H]1CN([C@@H](C)CO)C(=O)Cc2cc(NC(=O)CCC(F)(F)F)ccc2O[C@@H]1CN(C)S(=O)(=O)c1cn(C)cn1
 : -2.2	-2.5	-0.7
O=C(C[C@@H]1CC[C@H]2[C@@H](COC[C@H](O)CN2Cc2cccc(C(F)(F)F)c2)O1)NCc1ccccc1
 : -9.3	-33.9	3.1
CO[C@H]1CN(C)C(=O)c2ccc(NS(=O)(=O)c3ccccc3C)cc2OC[C@@H](C)N(C)C[C@@H]1C
 : 0.4	0.9	-0.8
COCC#Cc1cnc2c(c1)C(=O)N([C@@H](C)CO)C[C@H](C)[C@H](CN(C)Cc1ccc3c(c1)OCO3)O2
 : 4.1	5.9	-0.4
Cc1cc(Cl)ccc1C(O)c1ncc(-c2ccc(Cl)cc2)[nH]1 (stereo unspecified)
 : -58.9	-79.8	-20.4
NCC[C@H]1CC[C@H](NC(=O)Cc2ccncc2)[C@H](CO)O1
 : 0.0	1.2	0.2
C[C@H](CO)N1C[C@H](C)[C@@H](CN(C)S(=O)(=O)c2ccc(F)cc2)OCCCC[C@H](C)Oc2ccc(NS(=O)(=O)c3ccc(Cl)cc3)cc2C1=O
 : -3.8	-12.0	-2.1
COc1cccc(-c2cnc3c(NC(C)=O)cc(-c4cccc(C(=O)NCCO)c4)cn23)c1
 : 4.3	1.6	9.2
O=C(c1ccncc1)N1CC2(C1)[C@H](c1ccccc1)[C@H](CO)N2C(=O)c1ccncc1
 : 1.8	6.7	-2.0
CCC(=O)N(C)C[C@H]1Oc2cc(-c3ccc(C#N)cc3)ccc2S(=O)(=O)N([C@H](C)CO)C[C@H]1C
 : -7.7	-5.3	-2.8
Cc1noc(C)c1C(=O)N(C)C[C@H]1OCc2ccccc2-c2c(n(C)c3ccccc23)C(=O)N([C@@H](C)CO)C[C@@H]1C
 : 0.4	3.0	-3.5
CC1(C(=O)NS(=O)(=O)c2cccc(F)c2)CCN1C(=O)CC1CCCC1 (stereo unspecified)
 : 9.1	2.3	2.3
O=C(Nc1ccc2c(c1)OCO2)N[C@H]1CC[C@@H](CCNC(=O)C2CCCC2)O[C@@H]1CO
 : -5.3	-0.7	-4.5
CN1[C@H](CO)[C@H]2c3ccccc3N(C(=O)Nc3ccccc3F)C[C@H]21
 : 3.3	12.4	-3.7
COc1cccc(-c2ccc3n(c2=O)C[C@H]2[C@H](CO)[C@@H](C(=O)N(C)C)N(C(=O)C4CCCC4)[C@@H]32)c1
 : 0.7	5.3	-5.1
C[C@H](CO)N1C[C@H](C)[C@@H](CN(C)S(C)(=O)=O)OCCCC[C@H](C)Oc2ccc(NS(=O)(=O)c3ccc(F)cc3)cc2C1=O
 : -2.5	-2.1	0.8
C[C@H]1CN([C@@H](C)CO)C(=O)c2cccc(NC(=O)c3ccc(-c4nccs4)cc3)c2O[C@@H]1CN(C)C(=O)Nc1ccc2c(c1)OCO2
 : 1.8	4.7	-1.5
COc1ccccc1-c1noc2c1C(=O)N(Cc1cn(-c3ccc(Cl)cc3)nn1)CC2
 : -13.6	-1.5	-1.7
C[C@@H]1CC(=O)N[C@H](c2ccccc2)C/C=C\C[C@H](c2ccccc2)NC1=O
 : 0.2	0.0	-0.4
CO[C@H]1CN(C)C(=O)c2cc(NS(C)(=O)=O)ccc2OC[C@H](C)N(C)C[C@H]1C
 : 2.3	-1.0	-2.6

# Following part
# Order of results: Ecoli rRNA inh	Ecoli rRNA inh OD600	Ecoli rRNA inh RFP
COCC(=O)N1[C@H](CO)[C@@H]2c3ccccc3N(C(=O)NC(C)C)C[C@@H]21
 : -1.7	0.9	3.3
O=C(C[C@H]1CC[C@@H](NC(=O)Nc2cc(F)ccc2F)[C@@H](CO)O1)NCc1ccccn1
 : 0.8	3.8	-1.3
C[C@H]1CN([C@@H](C)CO)S(=O)(=O)c2ccc(C3=CCCC3)cc2O[C@H]1CN(C)C
 : 5.3	2.7	-3.3
C[C@H]1CCCCO[C@H](CN(C)Cc2ccncc2)[C@@H](C)CN([C@@H](C)CO)C(=O)c2cc(NC(=O)CCCN(C)C)ccc2O1
 : -0.3	-4.4	-0.6
C[C@@H]1CN([C@@H](C)CO)C(=O)c2cc(NC(=O)c3ccncc3)ccc2O[C@@H]1CN(C)S(=O)(=O)c1cccs1
 : -3.7	-3.8	4.2
C[C@H](CO)N1C[C@H](C)[C@@H](CN(C)CC2CC2)Oc2c(NC(=O)Cc3cn(C)c4ccccc34)cccc2C1=O
 : -9.3	-5.8	-0.4
Cc1noc(C)c1S(=O)(=O)Nc1ccc2c(c1)C(=O)N([C@@H](C)CO)C[C@H](C)[C@@H](CN(C)C)OCCCC[C@@H](C)O2
 : 3.2	1.7	-1.7
C[C@@H]1CN([C@H](C)CO)C(=O)c2cc(NS(=O)(=O)c3cccs3)ccc2O[C@H]1CN(C)S(=O)(=O)c1cccs1
 : -4.2	-8.3	-1.9
CO[C@@H]1CN(C)C(=O)c2cc(NC(C)=O)ccc2OC[C@@H](C)N(Cc2ccncc2)C[C@H]1C
 : -1.2	9.3	-1.3
O=C(Nc1cccc(F)c1)N1CC(=O)N2[C@H](CO)[C@H](c3ccc(C#CCC4CCCC4)cc3)[C@H]2C1
 : 2.6	-12.4	26.6
C/C=C/c1ccc([C@@H]2[C@@H](C#N)N(c3nc(-c4ccccc4)cs3)[C@@H]2CO)cc1
 : 0.1	13.1	-1.4
Cc1noc(C)c1S(=O)(=O)Nc1ccc2c(c1)C(=O)N([C@@H](C)CO)C[C@@H](C)[C@H](CN(C)C(=O)Nc1ccc(F)cc1)O2
 : 2.0	8.6	0.4
Cc1noc(C)c1S(=O)(=O)N(C)C[C@H]1OCCCC[C@H](C)Oc2ccc(NS(=O)(=O)c3cccs3)cc2C(=O)N([C@H](C)CO)C[C@@H]1C
 : 1.7	8.5	1.1
CCNC[C@H]1[C@@H](c2ccc(C3=CCCC3)cc2)[C@@H](CO)N1C(=O)C1CCCC1
 : -2.5	-6.3	18.9
C[C@@H]1CN([C@H](C)CO)C(=O)CCCn2cc(nn2)CO[C@H]1CN(C)Cc1ccc2c(c1)OCO2
 : 1.1	2.2	-0.7
CC(C)NC(=O)Nc1ccc2c(c1)C(=O)N([C@H](C)CO)C[C@H](C)[C@H](CN(C)S(=O)(=O)c1ccccc1)OCCCC[C@@H](C)O2
 : 1.7	5.0	-1.9
CC(C)CC#Cc1cnc2c(c1)C(=O)N([C@H](C)CO)C[C@@H](C)[C@H](CN(C)Cc1cccc(F)c1)O2
 : -1.1	-14.5	10.3
CNC[C@@H]1OCCCC[C@H](C)Oc2ccc(NC(=O)Cc3ccccc3)cc2C(=O)N([C@@H](C)CO)C[C@@H]1C
 : 2.1	-2.3	0.3
O=C(C[C@H]1CC[C@@H]2[C@H](COC[C@H](O)CN2S(=O)(=O)c2ccc(F)cc2)O1)N[C@@H]1CCN(Cc2ccccc2)C1
 : 0.9	-1.1	4.7
C[C@@H]1CN([C@H](C)CO)S(=O)(=O)c2ccc(-c3cccc(C#N)c3)cc2O[C@@H]1CN(C)CC1CC1
 : -3.3	10.2	-1.6

# Filtered by structure: those above containing a tert-butyl group
# Order of results: Ecoli rRNA inh	Ecoli rRNA inh OD600	Ecoli rRNA inh RFP
CCCCCCCCN1C(=O)[C@@H](CC(=O)NCc2ccc(OC)c(OC)c2)C[C@@]2(C(=O)OC)C1=C[C@H](C(C)(C)C)O[C@@H]2C
 : 7.6	8.6	-1.4
CCOC(=O)N1CCN(C(c2cc3ccccc3o2)c2nnnn2C(C)(C)C)CC1 (stereo unspecified)
 : 0.4	-7.2	-2.7

# Other results:
# Order of results: Ecoli rRNA inh	Ecoli rRNA inh OD600	Ecoli rRNA inh RFP
C[C@@H]1CN([C@@H](C)CO)C(=O)c2cccc(NS(=O)(=O)c3cn(C)cn3)c2O[C@@H]1CN(C)C(=O)Nc1cccc2ccccc12
 : 6.1	18.5	0.9
CC(=O)N1CC2(CC(c3ccccc3C(F)(F)F)=NO2)CN1c1ccc(Cl)cc1 (stereo unspecified)
 : -43.3	-69.1	-5.5
COc1ccc(NC(=O)N(C)C[C@H]2OCCCC[C@@H](C)Oc3ccc(NS(=O)(=O)c4cn(C)cn4)cc3C(=O)N([C@H](C)CO)C[C@H]2C)cc1
 : 2.5	1.1	0.3
CCS(=O)(=O)Nc1ccc2c(c1)C(=O)N(C)[C@H]1CC[C@H](CC(=O)NCCCN3CCOCC3)O[C@@H]1CO2
 : 0.4	3.1	0.6
CCS(=O)(=O)N1CCC2(CC1)CN(C(=O)c1cccc(F)c1)[C@@H](CO)c1c2c2ccc(OC)cc2n1C
 : -2.2	-0.3	2.4
CN(C)C(=O)[C@H]1[C@H](CO)[C@H]2Cn3c(cccc3=O)[C@H]2N1CC1CCCC1
 : 3.2	2.7	3.1

# Record cards (already shown):
# Profile of `CC1(C(=O)NS(=O)(=O)c2cccc(F)c2)CCN1C(=O)CC1CCCC1` (stereo unspecified) : Ecoli rRNA inh = 9.1; Ecoli rRNA inh OD600 = 2.3; Ecoli rRNA inh RFP = 2.3
# Profile of `O=C(c1cccnc1)N1CC2(C1)[C@@H](c1ccccc1)[C@@H](CO)N2C(=O)c1cccnc1` : Ecoli rRNA inh = 3.6; Ecoli rRNA inh OD600 = 2.2; Ecoli rRNA inh RFP = -2.2
